rRNA inh HTS = reduced GFP signal of wild-type E. coli, primary screen, bacterial rRNA inhibitor project, GFP/RFP fluorescence, OD600, single point. GFP signal change (wild-type ribosome), % (concentration not given with the values). E. coli WT GFP vs humanized-ribosome RFP mutants, 24 h; hits give low values; DMSO median 0, no signal -100. 350,000 compounds, 1.6% hits;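 active = significant combined selectivity score with lowered wild-type GFP, culture density cut under 30%, mutant RFP and density less affected; inactive = any of these conditions unmet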; also: one replicate is shown; some compounds called inactive have numbers as strong as hits
A1 inh = caspase 3/7 activation in MEF A1-2A-BIM cells, primary screen, A1 inhibitor project, cell-based, luminescence, HTS; Caspase-Glo 3/7 luminescence, 3 h; percent of clofoctol response, vehicle zero; caspase activation, % (concentration not given with the values); 330,000 compounds, 0.066% hits; AID 2462, 2010;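 active = over half of replicate activation scores above 10%, or exactly half above 10 with the replicate mean above 10; inconclusive = replicate mean below 10 yet half the replicates above 10; inactive = over half of replicates below 10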;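 also: wells of about 30 µL received 50 nL stock; many hits fall short of the cut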
LANA-H2A inh = blockers of LANA interaction with H2A/H2B – biochemical, FP readout, HTS, primary screen; Protein LANA1 (Human herpesvirus 8 type P (isolate GK18)), Q9QR71; inhibition, % (test concentration not listed); 320,000 compounds, 0.6% hits; cell-free LANA-H2A/H2B peptide, fluorescence polarization; AID 2629, 2010; in the data active = inhibition mostly above about 10%, no sharp cut-off; inactive = mostly below about 6.7%;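 also: stock transfer was 7.5 nL into about 10 µL; 0% = median of vehicle wells and 100% = median of positive control wells; one replicate is shown; the record names a cut of 25% in any replicate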
Target sequence (Q9QR71 whole entry, looked up): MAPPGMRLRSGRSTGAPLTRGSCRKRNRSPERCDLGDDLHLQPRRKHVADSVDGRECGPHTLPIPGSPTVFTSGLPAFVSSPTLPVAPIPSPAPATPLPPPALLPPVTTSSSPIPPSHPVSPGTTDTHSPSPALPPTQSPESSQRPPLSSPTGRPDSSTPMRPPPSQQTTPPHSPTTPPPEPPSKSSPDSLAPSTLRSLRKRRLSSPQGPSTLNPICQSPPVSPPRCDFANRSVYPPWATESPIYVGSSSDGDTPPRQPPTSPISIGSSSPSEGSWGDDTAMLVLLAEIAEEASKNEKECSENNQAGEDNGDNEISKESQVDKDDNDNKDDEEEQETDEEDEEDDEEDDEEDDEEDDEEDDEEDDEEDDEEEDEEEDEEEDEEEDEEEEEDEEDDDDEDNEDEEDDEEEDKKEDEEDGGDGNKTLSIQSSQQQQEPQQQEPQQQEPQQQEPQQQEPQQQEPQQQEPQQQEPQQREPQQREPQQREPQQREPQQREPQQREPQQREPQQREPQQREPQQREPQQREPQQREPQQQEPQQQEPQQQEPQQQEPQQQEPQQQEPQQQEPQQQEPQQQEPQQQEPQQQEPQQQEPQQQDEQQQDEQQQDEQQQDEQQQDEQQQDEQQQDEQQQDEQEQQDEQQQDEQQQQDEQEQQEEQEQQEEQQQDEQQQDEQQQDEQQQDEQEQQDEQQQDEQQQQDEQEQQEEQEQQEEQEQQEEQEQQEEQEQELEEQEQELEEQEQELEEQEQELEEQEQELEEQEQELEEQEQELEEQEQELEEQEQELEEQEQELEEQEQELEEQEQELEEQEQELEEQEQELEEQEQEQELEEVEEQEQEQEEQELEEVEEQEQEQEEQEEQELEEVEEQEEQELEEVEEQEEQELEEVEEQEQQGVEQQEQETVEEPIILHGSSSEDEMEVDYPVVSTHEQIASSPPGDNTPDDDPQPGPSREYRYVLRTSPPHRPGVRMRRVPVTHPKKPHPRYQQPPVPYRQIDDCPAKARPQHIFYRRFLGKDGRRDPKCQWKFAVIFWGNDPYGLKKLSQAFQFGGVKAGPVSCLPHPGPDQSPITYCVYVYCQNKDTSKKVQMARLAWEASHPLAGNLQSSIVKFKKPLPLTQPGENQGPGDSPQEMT
T cruzi inh = inhibitors of intracellular T. cruzi growth, primary screen, luminescence, NIH3T3 host cells; inhibition, % (concentration not given with the values); T. cruzi beta-gal in NIH3T3, 90 h; 300,000 compounds, 1.4% hits; AID 1885, 2009;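 active = mean inhibition across valid replicates above about 55%, limit read from the data; inconclusive = mean below that limit but half or more replicates reach it; inactive = mean below it, under half of replicates reach it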;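 also: signal also drops with host cell toxicity which is not excluded here; 0% = plate median of DMSO wells and 100% = zero luminescence signal; higher percent means less beta-gal luminescence so fewer parasites; stock transfer was 50 nL into about 50 µL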
Calb FLC = C. albicans growth inhibition with fluconazole, primary screen, CaCi-2 strain, Alamar Blue fluorescence; C. albicans CaCi-2 (fluconazole-resistant clinical isolate) + fluconazole, 48 h; growth inhibition, % (concentration not given with the values); 300,000 compounds, 0.57% hits; AID 1979, 2009;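 active = most replicates above 75%; inconclusive = exactly half above 75%; inactive = most below 75%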;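 also: all wells also contain fluconazole at 8 µg/ml as a sub-toxic cotreatment; 0% = median of DMSO wells and 100% = median of geldanamycin control wells; wells of about 8 µL received 7.5 nL stock; the first replicate is given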
Beta2AR agonist = beta2AR agonists driving receptor internalization, primary screen, cell-based, FAP fluorogen, flow cytometry | Am2.2-beta2AR cells; reference of the scale not given here | Beta-2 adrenergic receptor (Homo sapiens), P07550 | 340,000 compounds, 0.43% hits | response, % (concentration not given with the values);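 active = response above a set limit, near 3 SD of response in nonfluorescent compounds, cut at about 42% in these data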;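 also: stock transfer was 100 nL into about 11 µL; a reference agonist was the positive control; negative values mostly stem from fluorescent compounds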
ALR inh = inhibitors of human ALR sulfhydryl oxidase, primary screen, biochemical, H2O2 detection, HRP-luminol luminescence, single point; purified ALR, DTT oxidation; inhibition, % (concentration not given with the values); 290,000 compounds, 3.8% hits; AID 485317, 2010;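 active = mean and each replicate at 75% or more; inconclusive = only one of the two met; inactive = neither met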;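 also: stock transfer was 7.5 nL into about 7.5 µL; 0% = neutral wells and 100% = wells with inactivated enzyme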
Beta cell apopt = inhibitors of cytokine-induced beta cell apoptosis, primary screen, luminescence; 300,000 compounds, 0.8% hits; INS-1E cytokine-induced death, ATP luminescence, 48 h; percent of positive-control rescue, neutral wells zero; AID 435005, 2010; protection from apoptosis, % (test concentration not listed);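 active = all replicates at 75% or more, or half of them and the mean; inconclusive = half reach 75% but not the mean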;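 also: 0% = cytokine-treated negative control wells and 100% = positive control rescue; higher means more ATP so stronger rescue from cytokine killing; wells of about 40 µL received 100 nL stock; the first replicate is given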
rRNA inh HTS OD600 = recorded beside rRNA inh HTS, whose call it bears; OD600 change, %; measured here: OD600 growth;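 optical density of the mix in the first replicate; 0 = DMSO median and -100 = no signal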
rRNA inh HTS RFP = recorded beside rRNA inh HTS, whose call it bears; RFP signal change, %; measured here: RFP humanized mutant strains;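 first replicate; 0 = DMSO median and -100 = no signal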
* marks the source's active call; other numbers are inactive results; ? = inconclusive; / = no result given. These rows are one share of the data; rates above refer to the full screens.

Results follow in this order: rRNA inh HTS	rRNA inh HTS OD600	rRNA inh HTS RFP	A1 inh	LANA-H2A inh	T cruzi inh	Calb FLC	Beta2AR agonist	ALR inh	Beta cell apopt
CC(C)(C)c1ccc(C(=O)Nc2c3c(nn2C(C)(C)C)CS(=O)(=O)C3)cc1
→ 15.3	14.0	-0.7	0.9	2.4	-1.3	-6.0	-3.2	-1.6	/
Cc1ccc(S(=O)(=O)N2CCN(C(=O)Cn3nc(C(=O)O)c4ccccc4c3=O)CC2)cc1
→ 2.3	3.7	1.8	1.2	0.6	-11.4	-2.8	/	-9.7	-3.6
COc1ccc(NCN2C(=O)CCC2=O)cc1
→ /	/	/	0.0	12.3	5.0	-6.0	-0.4	16.9	1.6
COc1ccccc1NC(=O)Nc1nnc(Cc2ccccc2F)s1
→ 3.3	-7.9	3.5	0.6	-1.5	-2.1	-3.7	1.8	-6.1	6.3
CCc1nc(NCCO)c(C#N)c2c1CSC(C)(C)C2
→ 0.2	0.2	7.7	-0.6	6.8	0.3	-3.7	9.2	-11.0	5.8
Cc1csc2c(=O)sc(NC(=O)c3ccco3)nc12
→ -3.0	4.5	3.6	-1.4	4.4	-3.5	-2.2	4.3	-5.3	3.7
CC1(C)CC(=O)C=C(NCc2ccco2)C1
→ /	/	/	-0.9	-15.3	-5.4	-1.0	-5.3	3.6	-0.2
CCO[C@H]1OC(C(=O)N2CCN(C)CC2)=C[C@@H](C2CC2)[C@@H]1CCCO
→ 12.6	12.4	2.0	0.5	0.6	-21.4	-11.1	0.5	-3.4	-9.2
Cc1ccccc1OCC(=O)OCC(=O)c1ccc(OC(=O)c2ccccc2)cc1
→ /	/	/	0.0	-3.1	-26.8	-14.9	16.0	-3.6	0.3
O=C(CSC1=NCCS1)Nc1ccc(F)cc1
→ 13.4	3.5	2.8	0.9	10.7	-20.4	0.1	-3.2	0.0	-13.3
OCC[C@@H]1C[C@H](O)[C@@H](O)[C@]2(Cc3ccccc3CCO2)O1
→ 0.7	0.7	3.6	0.0	-0.4	0.3	5.8	5.5	0.3	-5.3
C=CCOc1c(Br)cc(CNn2c(C)n[nH]c2=S)cc1OC
→ -3.6	-19.9	-3.7	-1.7	0.6	-1.6	26.1	0.7	21.2	-4.4
COCCN(C(=O)CSc1ncn[nH]1)c1c(N)n(Cc2ccccc2)c(=O)[nH]c1=O
→ 3.3	11.4	-1.5	0.5	0.2	-2.3	1.1	-9.1	-0.3	-1.7
Cc1cc(C)cc(N(CC(=O)NC2CCCCCC2)S(=O)(=O)c2c(C)[nH]c(=O)[nH]c2=O)c1
→ -5.1	8.9	4.5	-0.3	5.5	5.0	?	12.1	-0.4	-4.3
COc1ccc(/C=C/C(=O)NCC2COc3ccccc3O2)c(OC)c1 (stereo not drawn)
→ -17.6	-14.5	0.6	-0.4	-2.6	34.5	3.5	3.2	-6.6	1.2

2 compounds from above, limited to T cruzi inh and ALR inh.
compound	T cruzi inh	ALR inh
CC(C)(C)c1ccc(C(=O)Nc2c3c(nn2C(C)(C)C)CS(=O)(=O)C3)cc1	-1.3	-1.6
Cc1ccc(S(=O)(=O)N2CCN(C(=O)Cn3nc(C(=O)O)c4ccccc4c3=O)CC2)cc1	-11.4	-9.7

The list continues:
Results follow in this order: rRNA inh HTS	rRNA inh HTS OD600	rRNA inh HTS RFP	A1 inh	LANA-H2A inh	T cruzi inh	Calb FLC	Beta2AR agonist	ALR inh	Beta cell apopt
CCCC(C)NC(=O)CSc1nc2ccc(C)cc2[nH]1 (stereo not drawn)
→ 5.6	8.6	-2.1	-0.4	1.0	-12.1	22.4	-8.1	-2.4	8.3
Cc1cc(=O)[nH]c(SCC(=O)N2C(C)CCCC2C)n1 (stereo not drawn)
→ 11.7	12.3	0.7	1.3	0.1	1.5	-4.7	2.7	-0.2	/
COc1ccc(/C=C(/NC(=O)c2ccccc2)C(=O)N2CCCCC2)cc1
→ 2.7	-2.1	-0.8	0.4	-3.6	-10.2	/	-10.6	0.3	4.3
COc1ccccc1S(=O)(=O)Cc1ccc(C(=O)NC2CCCCC2)o1
→ /	/	/	3.2	3.9	-6.5	-8.4	-2.4	2.5	1.7
CC1=C(C(=O)NCc2ccccc2)C(c2cccs2)NC(=S)N1 (stereo not drawn)
→ 10.9	4.2	0.8	0.0	-1.4	5.1	-3.6	-5.9	-2.7	-4.6
Cc1cc2ccccc2c(=O)n1CC(=O)NCc1ccco1
→ /	/	/	0.2	0.5	5.5	1.9	-4.7	-3.6	-10.8
COC(=O)c1cc(=O)n(Cc2ccco2)c(=Nc2ccc(F)cc2)s1
→ /	/	/	1.1	-0.3	51.4	4.0	14.5	/	-14.4
CC1CCN(C(=O)C(NS(=O)(=O)c2cccc3nsnc23)C(C)C)CC1 (stereo not drawn)
→ 6.3	5.9	0.9	-0.2	-3.7	31.5	3.0	6.1	-6.9	-6.6
COc1ccc(Cc2noc(COc3ccc(Cl)cc3)n2)cc1
→ /	/	/	0.5	12.9	-4.8	?	3.0	-5.9	-2.1
COc1cccc(-c2nc(C#N)c(N3CCN(C(=O)c4ccco4)CC3)o2)c1
→ 6.8	13.0	2.1	0.2	2.1	3.5	-1.2	-3.4	-5.4	-2.9
COc1ccccc1S(=O)(=O)N1CCN(S(=O)(=O)c2ccccc2C#N)CC1
→ 6.2	9.6	0.1	0.2	2.4	0.8	-1.0	-2.9	2.7	-1.7
COc1ccc([N+](=O)[O-])cc1NC(=O)CCNC(=O)Cn1ccc2ccccc2c1=O
→ 8.6	1.3	-0.7	1.3	-0.7	-5.8	-2.2	1.3	-17.3	-1.2
COc1ccc(C2=NN(CN3C(=O)C(=O)c4ccccc43)C(c3ccc(Br)cc3)C2)cc1 (stereo not drawn)
→ 5.4	7.0	1.7	0.1	3.4	-0.9	17.8	5.2	-0.6	1.8
COc1ccc(CC(=O)Nc2nnc(C(C)C)s2)cc1
→ 21.7	3.8	2.1	/	/	-7.7	-1.8	-1.9	/	/
COCCn1nnnc1C(c1ccccn1)N1CCN(c2cc(Cl)ccc2C)CC1 (stereo not drawn)
→ /	/	/	-0.3	0.0	-2.6	-4.4	23.4	-5.2	2.9
CC(Oc1ccccc1)C(=O)N=C1SC2CS(=O)(=O)CC2N1c1cccc(F)c1 (stereo not drawn)
→ 2.6	0.5	2.8	-0.7	9.5	-6.7	-5.6	-0.5	-1.9	-7.1
CCCc1cc(=O)[nH]c2nnc(SCC(=O)Nc3ccc(C(C)=O)cc3)n12
→ 0.0	2.8	-2.4	1.5	10.7	-4.8	3.5	10.2	-2.1	-11.0
CC1(CC(=O)N/N=C/c2ccc(-c3cccc(C(F)(F)F)c3)o2)OCCO1
→ -11.4	2.3	1.7	1.2	-1.7	-0.9	3.5	-5.1	-4.1	-0.3
Cc1ccc(S(=O)(=O)NC2(C(F)(F)F)C(=O)Nc3c2c(=O)n(C)c(=O)n3C)cc1 (stereo not drawn)
→ /	/	/	0.9	-6.5	-5.7	5.5	-9.9	-2.5	1.2
CCOC(=O)N1CCC(NC(=O)c2cc(-c3ccc(F)cc3)[nH]c2C)CC1
→ /	/	/	-0.5	-1.8	13.8	-2.5	-1.9	98.2*	4.2
CC(OC(=O)c1cccc(-n2cnnn2)c1)C(=O)Nc1ccc(N(C)C)cc1 (stereo not drawn)
→ 7.7	5.6	0.4	-1.1	-2.7	11.0	1.6	11.7	-73.4	5.6
CCOC(=O)c1cc(-c2ccccc2)nc2nc(N3CCCCC3)sc12
→ /	/	/	-1.8	-0.2	16.0	-11.6	-4.7	1.6	-5.9
Cc1ccc2c(c1)N(C(=O)CCC(=O)NCCCN1CCOCC1)CC(C)O2 (stereo not drawn)
→ 8.2	12.5	0.5	-0.1	3.1	-2.6	-13.9	-6.3	-7.1	-3.4
CC1(C)CC(=O)C(CC2C(=O)CC(C)(C)CC2=O)C(=O)C1
→ /	/	/	-0.1	-2.7	3.7	-5.9	-6.3	11.8	-1.2
Cc1ccsc1-c1n[nH]c(=S)n1C1CCCCC1
→ -40.8*	-28.6*	-5.4*	0.8	-0.1	-16.1	5.9	3.7	25.7	/
COc1ccc(CCn2nc(C)c([N+](=O)[O-])c2C)cc1
→ 8.9	4.3	5.6	-8.9	4.2	5.9	0.9	0.5	-0.9	0.2
Cc1cc(=O)oc2cc(NS(=O)(=O)c3ccccc3)ccc12
→ -3.8	-5.0	0.9	1.7	1.8	/	-0.9	2.3	4.0	-3.4
CS(=O)(=O)N(CC(=O)N1CCCCCC1)c1cc(Cl)ccc1Cl
→ -4.3	-7.9	-2.9	-0.2	-0.2	0.7	-8.5	-7.8	-12.4	-4.6
Cc1ccc(C2CC(c3ccccc3)=NN2C(=S)Nc2ccccc2)o1 (stereo not drawn)
→ /	/	/	0.9	-1.4	31.5	-9.0	-16.9	-10.8	12.5
CN(C)c1cccc(C(=O)NCCCn2ccc3ccccc32)c1
→ 2.1	-11.0	8.2	-0.1	-6.0	14.0	-12.6	-2.4	55.7	5.2
CCCCOc1ccccc1Cn1c(=O)oc2ccc(C)cc21
→ -18.6	-24.4	-8.8	0.7	-7.8	14.8	?	35.2	-0.6	-1.6
COc1ccc(Cl)cc1NC(=O)CN(C)CC(=O)NCc1ccc(F)cc1
→ -22.1	-26.1	-3.4	-0.2	-11.4	/	/	3.1	-1.4	3.4
CCc1nccn1CCC(=O)N1CCCC(Nc2ccc(F)cc2)C1 (stereo not drawn)
→ 3.8	15.1	-2.5	0.1	0.3	-11.5	-4.9	-2.6	98.5*	-2.9
CC(C)(C)Cc1nnc(NC(=O)CN2C(=O)c3ccccc3C2=O)s1
→ 12.2	15.4	3.7	2.1	0.9	0.0	10.0	-0.2	-1.4	-12.9
Cc1cccc(-n2cccc2)c1C#N
→ /	/	/	1.1	-1.8	-12.2	-7.6	0.6	7.3	-8.0
CN(C(=O)Cc1c(C(=O)O)n(C)c2ccccc12)c1ccc(Cl)cc1
→ 0.3	-5.5	1.9	2.3	4.0	-19.5	15.3	-0.1	23.5	0.5
CN(CC(=O)Nc1cccc(F)c1)C(=O)c1cn(-c2ccccc2)nc1-c1ccc(Cl)cc1
→ -10.4	-0.8	1.6	1.1	155.7*	/	/	-8.2	-9.5	18.2
N#Cc1cccc(NC(=O)COC(=O)c2cccc(N3C(=O)c4ccccc4C3=O)c2)c1
→ /	/	/	0.0	-3.0	-5.4	24.3	-3.7	-0.8	-9.8
COc1ccc2c(c1)OC1=C(C(=O)CCC1)C2C1=C(O)CCCC1=O (stereo not drawn)
→ /	/	/	0.6	15.2	-11.9	34.5	-0.2	/	-6.6

Screening results (PubChem)
